# GIRK2 act = opens human GIRK2 potassium channels; P48051; HEK293-GIRK2 thallium flux, Thallos fluorescence; calls only for hits at 25 µM; actives 0.05% (n = 63,000); AID 1259325;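 active = among the strongest 0.2% of first-round signals and kept after retests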;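 note: first round at about 10 µM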
# Target sequence (P48051 whole entry, looked up): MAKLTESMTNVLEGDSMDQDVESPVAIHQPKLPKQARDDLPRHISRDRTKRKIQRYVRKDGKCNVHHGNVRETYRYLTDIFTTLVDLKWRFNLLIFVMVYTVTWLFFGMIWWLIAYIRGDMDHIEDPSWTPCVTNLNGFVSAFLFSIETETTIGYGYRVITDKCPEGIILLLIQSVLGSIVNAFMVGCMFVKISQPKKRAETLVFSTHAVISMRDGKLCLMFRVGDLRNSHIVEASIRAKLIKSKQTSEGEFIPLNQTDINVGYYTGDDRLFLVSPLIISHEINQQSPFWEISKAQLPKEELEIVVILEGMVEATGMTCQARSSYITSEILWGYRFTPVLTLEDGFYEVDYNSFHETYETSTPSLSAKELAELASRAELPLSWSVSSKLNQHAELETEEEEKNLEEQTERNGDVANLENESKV
# Calls only; i = inactive. A portion of the library; rates above refer to the full screens.
SMILES,GIRK2 act
COc1cc(OC)c(NC(=O)c2c3c(nn2C2CCS(=O)(=O)C2)CCC3)cc1Cl (centres undefined),i
CC(=O)OCC1=CCCC2[C@@]1(C)CC[C@@H](C)[C@]2(C)CCC(C)CC(=O)O (some centres undefined),i
CC1CCC2(OC1)OC1CC3C4CCC5C[C@@H](O[C@@H]6O[C@H](CO[C@@H]7OC[C@@H](O)[C@H](O)[C@H]7O)[C@H](O)[C@H](O)[C@H]6O)CC[C@]5(C)C4CC[C@]3(C)C1C2C (some centres undefined),i
Cc1cc(=O)[nH]c2cc(NC(=O)C3c4ccccc4Oc4ccccc43)ccc12,i
COc1ccc(-c2cc(SCC(=O)Nc3ccc(OC(F)(F)F)cc3)ncn2)cc1,i
CC(C)c1ccc(NC(=O)CCc2csc(NC(=O)Nc3ccccc3)n2)cc1,i
Cc1cn2c3c(=O)[nH]c(=O)n(C)c3nc2n1CCN1CCC(Cc2ccccc2)CC1,i
CCOC(=O)C1CCN(c2ncnc3[nH]ncc23)CC1,i
O=C(Nc1ccccc1)N1CCOC2(CCOCC2)C1,i
O=C(Cn1cccn1)N1CC(c2nc(-c3cccs3)no2)C1,i
O=C(CN1CCC(c2nc(-c3cccc(F)c3)no2)CC1)NCc1ccccc1,i
COc1ccccc1-c1c(C(F)(F)F)oc2c3c(ccc2c1=O)OCN(Cc1ccncc1)C3,i
COc1ccc(NC(=O)Nc2ccc3c(c2)CCC(=O)N3CCC(C)C)cc1OC,i
CC(=O)Nc1ccc(NS(=O)(=O)c2cn(C)nc2C)cc1,i
O=C(Cn1nc(-c2ccc(F)cc2)c2sc(N3CCCC3)nc2c1=O)NCCc1ccccc1,i
COc1ccc(-c2ccc(=O)n(C(C)C(=O)Nc3ccccn3)n2)cc1 (centres undefined),i
Cc1oc2c(C)c(OC(=O)N3CCOCC3)ccc2c(=O)c1-c1nc2ccccc2s1,i
COc1ccccc1N1CCCn2c1nc1c2c(=O)n(C/C=C/c2ccccc2)c(=O)n1C,i
C=CCOc1cccc(N2CCn3c2nc2c3c(=O)n(C)c(=O)n2C)c1,i
CC(=O)Nc1nc2c(s1)CN(CC(=O)Nc1cccnc1)CC2,i
Nc1nc(Nc2ccc(C(F)(F)F)cc2)ncc1[N+](=O)[O-],i
COc1ccccc1CNC(=O)Cn1nc(-c2ccc(Br)cc2)ccc1=O,i
c1ccc(COc2ccc(CN3CC(c4nc(-c5ccco5)no4)C3)cc2)cc1,i
Cc1ccc(C(=O)N(C(=O)N2CCCCC2)C(C)(C)C)cc1[N+](=O)[O-],i
COc1ccccc1N1CCN(CCNC(=O)c2c(F)cccc2F)CC1,i

# Five compounds picked at random from those above, as already listed:
SMILES,GIRK2 act
COc1ccccc1CNC(=O)Cn1nc(-c2ccc(Br)cc2)ccc1=O,i
Cc1ccc(C(=O)N(C(=O)N2CCCCC2)C(C)(C)C)cc1[N+](=O)[O-],i
CC(=O)Nc1nc2c(s1)CN(CC(=O)Nc1cccnc1)CC2,i
COc1ccccc1-c1c(C(F)(F)F)oc2c3c(ccc2c1=O)OCN(Cc1ccncc1)C3,i
O=C(Cn1cccn1)N1CC(c2nc(-c3cccs3)no2)C1,i

# 5 compounds out of the list, ordered by SMILES length, descending.
SMILES,GIRK2 act
CC(=O)OCC1=CCCC2[C@@]1(C)CC[C@@H](C)[C@]2(C)CCC(C)CC(=O)O (some centres undefined),i
COc1ccccc1N1CCCn2c1nc1c2c(=O)n(C/C=C/c2ccccc2)c(=O)n1C,i
COc1cc(OC)c(NC(=O)c2c3c(nn2C2CCS(=O)(=O)C2)CCC3)cc1Cl (centres undefined),i
Cc1ccc(C(=O)N(C(=O)N2CCCCC2)C(C)(C)C)cc1[N+](=O)[O-],i
COc1ccc(-c2ccc(=O)n(C(C)C(=O)Nc3ccccn3)n2)cc1 (centres undefined),i

# The listing picks up with the four entries that preceded the break.
SMILES,GIRK2 act
COc1ccccc1CNC(=O)Cn1nc(-c2ccc(Br)cc2)ccc1=O,i
c1ccc(COc2ccc(CN3CC(c4nc(-c5ccco5)no4)C3)cc2)cc1,i
Cc1ccc(C(=O)N(C(=O)N2CCCCC2)C(C)(C)C)cc1[N+](=O)[O-],i
COc1ccccc1N1CCN(CCNC(=O)c2c(F)cccc2F)CC1,i
CCOc1ccc(N2CC(C)Cn3c2nc2c3c(=O)n(CC)c(=O)n2C)cc1 (centres undefined),i
Cc1ccc(Cl)cc1S(=O)(=O)Nc1ccc(-n2nnc(C(=O)NCC(F)(F)F)n2)cc1,i
COc1cc(NC(=O)COc2cccc3ccccc23)ncn1,i
C[C@@H]1Cc2cc(O)cc(O)c2C(=O)O[C@H](C)CC(=O)Cc2cc(O)cc(O)c2C(=O)O[C@H](C)CC(=O)O[C@H](C)Cc2cc(O)cc(O)c2C(=O)O[C@H](C)CC(=O)O1,i
O=C(NCc1ccco1)C1CCC(Cn2c(=O)[nH]c3ccsc3c2=O)CC1 (centres undefined),i
O=C(CN1CCN(c2cccc(Cl)c2)C1=O)Nc1cccc2nsnc12,i
CCN(CC)C(=O)c1cnc2nc(C)ccc2c1Nc1ccc(F)cc1F,i
Cn1c(=O)[nH]c(=O)c2c1nc1n2CC(COc2ccc3ccccc3c2)O1 (centres undefined),i
Cc1ccc(-n2ncc3c(=O)n(CC(=O)N4CCCCCC4)cnc32)cc1C,i
O=C(CSc1cc(-n2cccn2)ncn1)Nc1cc(C(F)(F)F)ccc1Cl,i
Cc1ccc(-c2noc(C3CCCN(S(=O)(=O)c4ccc(C)cc4)C3)n2)cc1 (centres undefined),i
CCCCC1CCC(C(=O)Nc2cc(C3CC3)nn2-c2nc(C)c(C)c(=O)[nH]2)CC1 (centres undefined),i
O=C(Cn1nc2c(SC3CCCCC3)nccn2c1=O)Nc1ccc(Cl)cc1F,i
CCOc1ccccc1C(=O)Nc1cc(-c2cn3nc(OC)ccc3n2)ccc1OC,i
Cc1ccc(NC(=O)c2ccc(Oc3nccnc3N3CCOCC3)cc2)cc1,i
CCCCOc1ccc(-c2cc3c(=O)n(CC(=O)NCc4cccc(OC)c4)ccn3n2)cc1,i
CCCNC(=O)CSc1nnc(NC(=O)c2cn(C)nc2OC)s1,i
Cc1cc(OCC(=O)Nc2cccc(Cl)c2)nc(N2CCCCC2)n1,i
COc1cn(CC(=O)Nc2ccc(C)cc2C)c(CSc2nc(C)cc(C)n2)cc1=O,i
O=C(CSc1ncc(CO)n1Cc1ccc(Cl)cc1)Nc1cccc(Cl)c1,i
N#Cc1nc(-c2cccs2)oc1N1CCN(C(=O)c2ccc(Cl)cc2Cl)CC1,i
O=S(=O)(CCc1ccccc1)N1CCN(c2ccc(-c3ccco3)nn2)CC1,i
COc1ccc(Nc2c(C(=O)N3CCCCCC3)cnc3nc(C)ccc23)cc1,i
Nc1c(C(=O)Nc2ccc(Cl)c(C(F)(F)F)c2)nnn1-c1ccccc1,i
O=C(NCc1ccco1)c1sccc1S(=O)(=O)N1CCN(c2ccc(F)cc2)CC1,i
SMILES,GIRK2 act
CC(C)(C(=O)NCCc1c[nH]c2ccccc12)n1nc(-c2ccco2)ccc1=O,i
COc1ccc(-n2nnc(C(=O)Nc3nccs3)n2)cc1,i
COC(=O)c1sccc1NC(=O)CN1CCCN(Cc2ccc(OC)cc2)S1(=O)=O,i
NC(=O)CSc1nc2scc(-c3ccccc3Cl)c2c(=O)n1-c1ccccc1,i
O=C(CCSc1ccccc1)N1CCC(Oc2nc3ccccc3s2)CC1,i
C=C(C)COc1ccc(-c2[nH]ncc2-c2ccc(OC)c(OC)c2)c(O)c1,i
Cc1cc(C)c(S(=O)(=O)Nc2ccc3c(c2)CCCN3S(=O)(=O)c2ccccc2)c(C)c1,i
COc1cccc(C(=O)Nc2ccc3c(c2)CCCN3C(C)=O)c1,i
O=C(COc1ccc(Cl)cc1)Nc1ccc(-n2nnc(C(=O)N3CCCC3)n2)cc1,i
O=C(CSc1cc(NCc2ccccc2Cl)ncn1)N1CCN(c2ccccc2)CC1,i
COc1ccc(-c2noc(-c3nnn(-c4cc(OC)ccc4OC)c3C)n2)cc1,i
CCOc1ccc(S(=O)(=O)N(Cc2cccs2)Cc2cccn2C)cc1F,i
Cc1nc(-n2nc(-c3cccs3)cc2NC(=O)c2cc(-c3ccccc3)on2)[nH]c(=O)c1C,i
O=C(c1cc(-c2ccccc2)n[nH]1)N1CC(c2nc(C3CC3)no2)C1,i
Cc1cc(C(=O)Nc2nc3c(s2)CN(C(=O)COc2ccccc2F)CC3)no1,i
O=C(NCC1CCN(C(=O)c2ccoc2)CC1)c1ccc(Cl)s1,i
Cn1c(=O)c([N+](=O)[O-])c(N2CCN(c3ccccc3)CC2)c2ccccc21,i
Cc1cccc(NC(=O)Cn2c(=O)n(CCCCC(=O)NC(C)C)c(=O)c3ccccc32)c1,i
O=C(Nc1ccc(F)cc1)c1cc(=O)c(OCc2ccc(F)cc2)co1,i
O=C(Nc1cnc(N2CCOCC2)nc1)c1cccc(Cl)c1,i
Cc1ccc(S(=O)(=O)c2cnc(SCC(=O)Nc3cc(C)ccc3C)nc2N)cc1,i
O=C(NCc1nn(C2CCCC2)c(=O)c2ccccc12)c1ccoc1,i
COc1cccc(CN(c2cccc(Cl)c2)S(=O)(=O)c2ccc3nnc(C)n3c2)c1,i
Cc1cn2nnc(C(=O)Nc3ccccc3F)c2c(=O)[nH]1,i
Cn1c(=O)c2c(nc3n(CC(N)=O)c(C(C)(C)C)cn23)n(C)c1=O,i

# The last 3 records of the part above come first, to join the parts:
SMILES,GIRK2 act
COc1cccc(CN(c2cccc(Cl)c2)S(=O)(=O)c2ccc3nnc(C)n3c2)c1,i
Cc1cn2nnc(C(=O)Nc3ccccc3F)c2c(=O)[nH]1,i
Cn1c(=O)c2c(nc3n(CC(N)=O)c(C(C)(C)C)cn23)n(C)c1=O,i
O=C(Nc1nc2ccccc2s1)C1CCN(S(=O)(=O)c2cccs2)CC1,i
CCOc1ccc(/C=N\Nc2nc3c(c(=O)n(CC)c(=O)n3C)n2C)cc1,i
CCc1ccc(N2C(=O)N(CC(=O)N(CC)CC)c3ccccc3S2(=O)=O)cc1,i
CCc1ccccc1NC(=O)/C=C/c1ccccc1,i
CCNc1nc(C)cc(Nc2ccc(NC(=O)COc3ccc(-n4cccn4)nn3)cc2)n1,i
COc1ccc(-c2ccc(=O)n(CCNS(=O)(=O)c3ccc(F)c(Cl)c3)n2)cc1,i
O=C(NC1CCCCCCC1)C1CCN(c2nc3c(-c4ccccc4F)csc3c(=O)[nH]2)CC1,i
CN(C)S(=O)(=O)c1ccc(-c2nc(C#N)c(N3CCN(c4ccccc4)CC3)o2)cc1,i
COC(=O)c1ccc(CN2CC(c3nc(C4CC4)no3)C2)cc1,i
COc1ccc(NC(=O)C2CCN(c3cc(Oc4ccccc4)ncn3)CC2)cc1OC,i
Cc1ccc2nc(C(=O)N3CCCC3)cc(Nc3ccc(F)cc3)c2c1,i
Cc1cccc(NC(=O)CSc2ncc(S(=O)(=O)c3cccc(C(F)(F)F)c3)c(=O)[nH]2)c1C,i
CC(=O)c1ccc(NC(=O)Cn2nc(-c3cccs3)c3sc(N4CCCCC4)nc3c2=O)cc1,i
Cc1nc(-c2nnc(NC(=O)c3cc(Cl)sc3Cl)o2)cs1,i
C#CCOCC1CCN(S(C)(=O)=O)CC1,i
O=C(NCc1ccc(C(O)c2cccs2)s1)c1ccc(Br)o1 (centres undefined),i
C=CCn1c(=S)[nH]c2cc(C(=O)NCCSCc3ccccc3)ccc2c1=O,i
O=C(Nc1ccc(Cl)c2ncsc12)c1cc2ccccc2oc1=O,i
O=C(N1CCNCC1)N1CCOCC1,i
Cc1cc(C)n(-c2ccc(C(=O)Nc3ccccc3OC(F)(F)F)nn2)n1,i
CS(=O)(=O)NCCn1nc(C2CC2)n(-c2ccccc2)c1=O,i
C=C1CCC2C(C(C)(C)O)CCC2(C)CC(O)C(=C)CCC1O (centres undefined),i
Cc1nc2sc(C(c3cccc(Br)c3)N3CCCC3)c(O)n2n1 (centres undefined),i
O=c1nc2n(c3ccccc13)CC/C2=C\c1cc(Br)ccc1O,i
CC1CN(Cc2cc(=O)oc3cc4c(cc23)OCO4)CC(C)O1 (centres undefined),i
SMILES,GIRK2 act
CN(C)C1CCCCC1NS(=O)(=O)c1ccc(Cl)cc1 (centres undefined),i
NC(=S)NCCC[C@H](N)C(=O)O,i
O=C(Cc1csc(Nc2ccc(Cl)cn2)n1)N1CCN(c2ccccc2F)CC1,i
O=C(O[C@@H]1[C@H](O)C[C@@](O)(C(=O)O)C[C@H]1OC(=O)c1cc(O)c(O)c(O)c1)c1cc(O)c(O)c(O)c1,i
O=C(Nc1cccc(Cl)c1)c1ccc(=O)n(Cc2cccc([N+](=O)[O-])c2)c1,i
O=C(Nc1ncc(Cc2cc(Cl)ccc2Cl)s1)c1ccc(-n2cnnn2)cc1,i
CN1C(=O)C(C)(C)COc2cc(NC(=O)Nc3cccc(Cl)c3)ccc21,i
COc1ccc(-c2cc3ccc4c(c3oc2=O)CN(Cc2cccnc2)CO4)c(OC)c1,i
CCOc1ccc(NC(=O)Cn2cnc3c(cnn3C3CCS(=O)(=O)C3)c2=O)cc1 (centres undefined),i
COc1ccc(CC(C)(O)CNC(=O)C(=O)Nc2ccc3c(c2)OCCO3)cc1 (centres undefined),i
COc1ccc(-c2nc(SCC(=O)NCc3ccco3)c(-c3ccccc3)[nH]2)cc1OC,i
COc1cccc2cc(C(=O)N3CCC(C(N)=O)CC3)oc12,i
CC1SC(=N)N(c2ncc(Cc3cccc(Cl)c3)s2)C1=O (centres undefined),i
O=C(Cn1ccn2nc(-c3ccc(Cl)cc3)cc2c1=O)Nc1cc(C(F)(F)F)ccc1Cl,i
O=C(CSc1nnc(N2CCN(C(=O)C3CC3)CC2)s1)Nc1ccccc1,i
O=S(=O)(C1CC1)N1CCc2ccccc21,i
CSc1ccccc1CN1CCC(CNC(=O)C(=O)NC2CC2)CC1,i
COc1cc(NC(=O)CN2CCc3[nH]c4c(C)c(Cl)ccc4c(=O)c3C2)cc(OC)c1,i
CCN1CCc2c(sc(NC(=O)c3cccs3)c2-c2nc3ccccc3s2)C1,i
O=C(COc1ccc(F)cc1)Nc1cccc2ccc(-n3ccnc3)nc12,i
NS(=O)(=O)c1ccc(NC(=O)CCS(=O)(=O)Cc2ccccc2)cc1,i
COCCN(Cc1ccsc1)C(=O)NCc1ccc(OC)c(OC)c1,i
Cc1ccccc1-c1noc(-c2cccn(CC(=O)N3CCN(c4ccccc4)CC3)c2=O)n1,i
Cc1ccc(-c2nc(Cn3nnc(C(=O)NCc4ccc(C(C)C)cc4)c3C)c(C)o2)cc1,i

# Assay outcomes (PubChem BioAssay)
